gsp agonist: agonists of gsp mutant (McCune-Albright syndrome); gsp mutant cells, cAMP HTRF, 30 min; control for the full effect not named in the record; Potency, µM (series often up to 76.9 µM), for inactives: at the top dose activation (cAMP increase), hits mostly activators; 340,000 tested, 0.13% active; active = well fitted activation curve with a large enough effect; inconclusive = small, poorly fitted or top-dose-only effect, or another doubt; inactive = no such curve, though single readings can be large or run the other way; cell line not stated here;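 also: phosphodiesterase inhibitor Ro 20-1724 added with compounds to block cAMP breakdown; potency is read from the fitted curve at half-maximal effect; nearly all actives have a fitted effect of over 60% in size; about a fifth of the inactives were tested at one dose only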
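Cells in DMEM/10% FBS with G418 were pretreated with compounds in DMSO plus […] (300 uM stock) for 30 min at 37C. cAMP was measured by HTRF (cAMP-d2 plus anti-cAMP antibody-K) after 30 min at room temperature.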
TRPML1 blocker: blocks the human TRPML1 channel | AID 624415 | activity change, negative = inhibition, % (test concentration not listed) | TRPML1-inducible cells, Ca2+ dye fluorescence, FDSS; stronger effect = lower value; inhibition of EC80 agonist-evoked calcium signal | 390,000 tested, 0.02% active | Q9GZU1; in the data active means activity change below about -50%; inconclusive means about -30% to -50%; inactive means above about -30%;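 also: stimulus is agonist 54-4 at its EC80 concentration; % is scaled to controls: 0 for no effect and ±100 for the full control effect; compound concentration not given in the record; the text of the record puts the active cut at -80%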
Target sequence (Q9GZU1 whole entry, looked up): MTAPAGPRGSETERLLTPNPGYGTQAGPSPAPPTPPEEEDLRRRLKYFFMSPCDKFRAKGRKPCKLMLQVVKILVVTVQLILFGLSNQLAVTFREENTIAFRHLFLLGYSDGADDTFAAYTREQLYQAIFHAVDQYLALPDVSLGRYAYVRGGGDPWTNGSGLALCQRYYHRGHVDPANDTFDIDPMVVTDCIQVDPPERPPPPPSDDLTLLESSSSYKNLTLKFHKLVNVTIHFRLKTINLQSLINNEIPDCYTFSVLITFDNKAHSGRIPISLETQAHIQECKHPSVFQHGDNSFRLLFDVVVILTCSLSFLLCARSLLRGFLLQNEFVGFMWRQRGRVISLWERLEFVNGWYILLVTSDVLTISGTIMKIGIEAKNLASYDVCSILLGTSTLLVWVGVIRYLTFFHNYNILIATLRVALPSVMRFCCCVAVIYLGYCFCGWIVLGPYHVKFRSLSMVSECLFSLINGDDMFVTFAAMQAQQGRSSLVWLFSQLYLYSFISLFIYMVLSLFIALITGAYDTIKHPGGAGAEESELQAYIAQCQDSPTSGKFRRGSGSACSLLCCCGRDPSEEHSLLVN
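Tet-induced TRPML1-DL cells loaded with Ca8 no-wash calcium dye were read kinetically on FDSS. Compound addition was followed by EC80 agonist 54-4 (4 uM final); inhibition was read over 110 s.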
gsp antagonist: antagonists of gsp mutant (McCune-Albright syndrome) | 340,000 tested, 0.4% active | Potency, µM (highest dose often 76.9 µM), for the others: at the top dose activity change, negative = inhibition, hits mostly inhibitors | gsp-mutant cells, cAMP HTRF, 30 min; control for the full effect not named in the record; active = falling curve of any shape with a large fitted effect; inconclusive = falling curve, mostly with a smaller effect; inactive = flat or rising curve; cell line not stated here;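 also: intracellular cAMP measured with PDE inhibitor Ro 20-1724 present during compound exposure; potency is read from the fitted curve at half-maximal effect; % is scaled to controls: 0 for no effect and ±100 for the full control effect; nearly all actives have a fitted effect of over 65% in size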
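Cells, 2000/well, grown 16–24 h in DMEM 10% FBS with 0.5 mg/ml G418, then compounds plus […] (300 uM addition stock), 30 min at 37C. cAMP read by HTRF (cAMP-d2 and anti-cAMP antibody-K in lysis buffer) after 30 min RT.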
ClpP mod: qHTS Assay for Activators of ClpP; Potency, µM (doses to about 57.5 µM), inactives show top-dose activity change, negative = active; 340,000 tested, 1.9% active; purified B. subtilis ClpP, FRET peptide cleavage, 20 min; AID 651965, 2013; ATP-dependent Clp protease proteolytic subunit (Bacillus subtilis (strain 168)), P80244; active = well fitted falling curve with a large enough effect; inconclusive = small, poorly fitted or top-dose-only effect; inactive = no such curve, though single readings can be large or run the other way; also: potency is read from the fitted curve at half-maximal effect; the source files actives as falling curves though it sought activators and does not explain the sign; nearly all actives have a fitted effect of over 65% in size; many hits overshoot -100%
Target sequence (P80244 whole entry, looked up): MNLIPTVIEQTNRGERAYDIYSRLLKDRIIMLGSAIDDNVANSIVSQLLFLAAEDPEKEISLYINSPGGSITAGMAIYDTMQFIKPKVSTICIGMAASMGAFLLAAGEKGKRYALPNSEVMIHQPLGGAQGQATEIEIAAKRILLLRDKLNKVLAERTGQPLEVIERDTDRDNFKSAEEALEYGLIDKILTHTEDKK
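Buffer: 100 mM Tris/HCl pH8, 100 mM KCl, 0.05% low protease BSA, 2.5% glycerol, 0.01% Tween-20. ClpP 10 microg/mL final; 20 min RT; delta FRET normalized to ADEP and DMSO controls.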
Menin-MLL FL inh: inhibitors of human menin-MLL interaction, wild-type MLL peptide | FP activity change, % at 61.4 µM | Fluorescence polarization, fluorescein-MLL peptide displacement from menin | 290,000 tested, under 10 active; inconclusive = falling polarisation curve, or a change in total fluorescence; inactive = total fluorescence flat and polarisation flat or rising; no compound was filed as active; the % refers to the polarisation; negative = inhibition;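 also: % of control where 0% means no effect; inhibitors lower the polarisation; unlabelled MLL peptide was the positive control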
TRPML1 agonist: human mucolipin-1 channel agonism; Q9GZU1; TRPML1-expressing cells, Ca2+ dye fluorescence, FDSS; host cell line not named in the record; reference of the full effect not given here; activation, % (test concentration not listed); 410,000 tested, 0.12% active; AID 624414; in the data active = activation above about 50%; inconclusive = about 30% to 50%; inactive = below about 30%; also: 0% is about no effect; the text of the record puts the active cut at 80%
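Tetracycline-induced TRPML1-DL cells are seeded and incubated overnight before loading with a no-wash Ca2+ dye and quencher. Agonist activity is taken from the 110 s fluorescence read following compound pin-transfer on an FDSS, before EC80 54-4 challenge.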
* marks the source's active call; other numbers are inactive results; ? = inconclusive; . = no result given; & = joins results of further samples; [ ] = dose if it differs, or a comment.

SMILES	gsp agonist	TRPML1 blocker	gsp antagonist	ClpP mod	Menin-MLL FL inh	TRPML1 agonist
CCc1ccc(S(=O)(=O)c2cn(C)c3cc(F)c(F)cc3c2=O)cc1	.	-9	.	1.5%	.	1.5
OCCC1CN(Cc2cccc3nonc23)CCN1Cc1ccsc1 (stereo not drawn)	4%[15.4 µM]	7	7%	.	-1.4	0.9
CCOC(=O)C1=CNS(=O)(=O)NC1c1ccc(C)cc1 (stereo not drawn)	.	6	7%	-2.5%	.	0.8
O=C(N/N=C/c1ccco1)c1ccc(NC(=O)C2CC2)cc1	-5%[15.4 µM]	-5	.	.	-0.4	0.6
Cc1cccc(C)c1NC(=O)CN1CCN(C(=O)CNC(=O)c2ccc(-c3ccccc3)cc2)CC1	-18%	14	.	-16%	.	0.2
Cc1ccc(NC(=O)C(=O)NCC(c2cccnc2)N2CCN(Cc3ccccc3)CC2)cc1F (stereo not drawn)	.	7	.	-8.6%	.	0.3
CCOc1ccc(NC(=O)CCC(=O)OC)cc1	30%	-5	14%	-2.6%	-0.2	1.3
O=C(CSc1ncnc2c1nnn2Cc1ccc(F)cc1)NC1CCCC1	-3%[15.4 µM]	-7	8%	.	-1.2	-0.4
CC(C)(C)c1ccc(CN2C(=O)c3ccccc3S2(=O)=O)cc1	-20%[15.4 µM]	-17	-19%	.	2.5	0.8
COc1cc(CN2CCN(C(C)C)C(CCO)C2)ccc1OCc1ccccc1 (stereo not drawn)	-49%[inhibitor]	-5	2%	-3.6%	-3.3	-0.8
CCc1ccccc1NC(=O)Cn1nnc(C(=O)Nc2ccc(C)c(F)c2)c1N	.	22	.	7.6%	.	0.6
CC(=O)Nc1ccc(S(=O)(=O)N2CCC(N(C)CCC(C)C)CC2)cc1	-17%	-2	8%	-4.8%	1.1	2.3
COc1cccc(CNC(=O)CN2c3cccc4cccc(c34)S2(=O)=O)c1	-19%	29	2%	-16%	.	0.2
Cc1ccc(C#CC[N+](C)(C)CC#Cc2ccccc2)cc1	7%[15.4 µM]	32	4%	-0.7%	-13	-0.4
Cc1ccc(NC(=S)/N=C(\N)Nc2nc(C)c3ccccc3n2)cc1C	-15%	35	-6%	-4.2%	7.6	3.0
COc1ccc(Nc2ccc(S(=O)(=O)N3CCCCC3)cc2[N+](=O)[O-])cc1OC	?	-25	3%	-0.4%	.	3.0
COc1cc(C#N)c(NS(=O)(=O)c2ccc3[nH]c(=O)sc3c2)cc1OC	-17%	6	4%	-4.4%	5.1	-0.8
Cc1occc1-c1nnc(SCC(=O)Nc2nc3ccccc3s2)o1	8%	5	3%	-0.1%	1.3	0.0
O=P(c1ccccc1)(c1ccccc1)C(c1ccccn1)P(=O)(c1ccccc1)c1ccccc1	2%[15.4 µM]	31	1%	-2.0%	0.9	-0.3
COc1ccc(S(=O)(=O)NCC(=O)Nc2cccc(C)c2C)cc1OC	0%	11	2%	1.4%	-4.2	0.5
COC(=O)CC1C(=O)NCCN1C(=O)Nc1ccc(Cl)c(Cl)c1 (stereo not drawn)	?	-9	13%	-0.5%	1.8	1.2
c1ccc(CSc2nc3ncccc3[nH]2)cc1	.	-9	.	-5.5%	.	-0.1
O=C(NCCS(=O)(=O)N1CCN(c2ccccc2)CC1)c1ccc2c(c1)OCO2	21%[15.4 µM]	2	-3%	0.5%	.	0.6
O=C(NCc1ccccc1)C(=O)NCC(c1ccco1)S(=O)(=O)c1cccs1 (stereo not drawn)	.	-11	.	0.2%	.	-0.5
CNC(=O)c1ccc(NC(=O)C2CCN(S(=O)(=O)c3cccc(C(F)(F)F)c3)CC2)cc1	7%	-7	7%	2.4%	.	-0.5

Reprinted at random: 2 entries already listed.
SMILES	gsp agonist	TRPML1 blocker	gsp antagonist	ClpP mod	Menin-MLL FL inh	TRPML1 agonist
Cc1cccc(C)c1NC(=O)CN1CCN(C(=O)CNC(=O)c2ccc(-c3ccccc3)cc2)CC1	-18%	14	.	-16%	.	0.2
Cc1ccc(NC(=S)/N=C(\N)Nc2nc(C)c3ccccc3n2)cc1C	-15%	35	-6%	-4.2%	7.6	3.0

More structures
SMILES	gsp agonist	TRPML1 blocker	gsp antagonist	ClpP mod	Menin-MLL FL inh	TRPML1 agonist
CCCN(Cc1ccccc1)C(=O)Nc1ccc2c(c1)nnn2C	11%	-2	4%	-29%	3.9	-0.2
CCc1ccc(C2CC(=O)c3c([nH]c(C(=O)OC4CCCC4)c3C)C2)cc1 (stereo not drawn)	.	34	.	1.0%	.	0.7
Cc1cc(C(=O)NNC(=O)CCCOc2ccccc2)c(C)o1	9%[15.4 µM]	4	4%	.	.	-0.9
Cc1ccc(C)n1-c1sccc1C(=O)O	-5%	12	8%	0.8%	?	0.1
CCOC(=O)c1c(-c2ccccc2)csc1NC(=O)c1cc(-c2ccc(F)cc2)on1	.	-16	.	3.9%	.	-0.3
O=C(Nc1ccnc(-c2cccnc2)n1)c1cccs1	0%	-6	0%	0.8%	4.0	-0.1
c1ccc(-c2noc(-c3ccncc3)n2)nc1	-7%	-8	-3%	0.3%	3.6	-0.3
COc1cc(CNC(=O)Nc2nc(C(N)CCc3ccccc3)cs2)cc(OC)c1OC (stereo not drawn)	.	-22	.	-0.5%	.	-0.9
COC(=O)C[C@H](NC(=O)Cn1cnc2c(NCc3ccccc3)ncnc21)C(=O)OC	.	-3	6%	-1.3%	.	-0.6
Cc1cccc(-c2nc(Cn3c(=O)cc(-c4ccccc4)c4c(C)nn(C)c43)c(C)o2)c1	.	7	.	-6.9%	.	0.9
C=C(C)CNC(=S)N/N=C/c1ccc(N2CCOCC2)cc1	19%	6	-7%	.	-0.1	-0.5
CCC1C(=O)N=C(SCC(=O)Nc2ccc(C)cc2)N(c2ccccc2)C1=O (stereo not drawn)	-22%	5	6%	.	3.2	-0.1
CCC(C(=O)NCCC1=CCCCC1)n1nc(C)c2c(C)n(-c3ccccc3)nc2c1=O (stereo not drawn)	?	0	?	-2.8%	.	-0.9
Cn1nccc1/C=N\NC(=O)c1ccc(Cl)cc1	?	17	-7%	1.3%	-3.7	-0.1
COc1ccc(NC(=O)CC(C)n2ccnc2)cc1 (stereo not drawn)	?	6	9%	.	-1.2	-0.4
CCN1CCSc2ccc(C(=O)NCc3ccccc3F)cc21	?	-8	-16%	4.3%	10.0	2.0
COC(=O)c1ccc2nc(NC(=O)C(C)(C)C)sc2c1	-3%[15.4 µM]	26	-25%	.	-2.3	0.7
O=C(CSc1nc2c(sc3ccccc32)c(=O)n1-c1ccccc1)NCc1ccco1	?	-8	4%	?	11	3.1
CCN1C(=O)[C@@H]2[C@@H](c3ccc(-c4ccc(OC)cc4)cc3)N3CCC[C@@]3(C(=O)OC)[C@@H]2C1=O	0%	7	-3%	-9.4%	.	-0.1
CC1CCN(C(=O)c2cc3nc(-c4ccccc4)cc(-c4ccccc4)n3n2)CC1	27%	-18	-5%	?	-0.1	0.8
Fc1ccc(-c2nc3ccc(Cl)cn3c2Cc2ccsc2)cc1	.	19	.	-25%	.	-0.1
CCc1ccc(/C=C2\SC(=S)N(CCCC(=O)N(CCO)c3ccccc3)C2=O)cc1	7%	-2	.	-0.8%	.	1.0
Cc1ccc(C)c(Cc2c(C)nc(C)[nH]c2=O)c1	-35%[inhibitor]	7	-1%	3.5%	4.1	1.0
COc1ccc(-c2ncccc2OC(=O)C23CC4CC(CC(C4)C2)C3)cc1	2%	22	-22%	25µM*	1.2	2.2
N#CC1=C(N)N(c2ccc(F)cc2)C(=O)C1	-43%[inhibitor]	-3	6%	-0.9%	2.5	0.6
SMILES	gsp agonist	TRPML1 blocker	gsp antagonist	ClpP mod	Menin-MLL FL inh	TRPML1 agonist
CCn1c(=O)c2[nH]c(SC)nc2n(CC)c1=O	0%	-8	.	-1.8%	.	0.2
COc1ccc(Cl)cc1NC(=O)CN(C)S(=O)(=O)c1cccs1	-1%	12	-24%	.	3.2	0.7
Cc1ccc(-c2nc(CSc3nncn4c3cc3occc34)c(C)o2)cc1	.	15	.	-23%	.	-0.4
COc1ccc(NC(=O)C/C(C)=N/NC(=O)CCc2ccccc2)c(OC)c1	7%[15.4 µM]	26	0%	.	.	-0.3
CC(C)(C)n1nnnc1C(c1ccc(Cl)cc1)N1CCSCC1 (stereo not drawn)	-6%	42	-2%	-1.5%	3.9	0.9
Cc1cc(C)n(-c2nc3ccccc3c(=O)n2OCCOc2ccccc2)n1	8%	-10	-5%	0.4%	-0.7	-0.3
COC(=O)[C@]1(C)N[C@H](CN(C)C(C)=O)[C@@H]2C(=O)N(C)C(=O)[C@@H]21	.	-8	1%	-0.1%	.	2.0
CNCCOc1ccccc1OC(C)C	12%[15.4 µM]	-9	-8%	.	-0.8	-0.4
Clc1ccc(-n2cccc2/C=N/n2cnnc2)cc1	?	8	10%	-3.4%	1.7	0.1
CC(C)CCOCC1CC2(CC(C)(c3csc(N)n3)OC2=O)C(=O)O1 (stereo not drawn)	-23%	-6	1%	0.8%	-4.1	-0.7
Cn1cc(C(=O)N/N=C/C2=C(N3CCOCC3)C(=C/c3ccc([N+](=O)[O-])cc3)/CC2)ccc1=O	2%[15.4 µM]	-5	-17%	.	.	0.6
CC(C)(NC(=O)N1CCOCC1)c1cccc(C(C)(C)NC(=O)N2CCOCC2)c1	-17%	11	4%	-1.8%	.	-0.2
CN(C(=O)COC(=O)COc1ccc(Cl)cc1Cl)c1c(N)n(Cc2ccccc2)c(=O)[nH]c1=O	-8%	7	8%	-4.2%	.	-0.6
COc1cc2c(cc1OC)CN(Cc1cc(OC)c(O)c(OC)c1)CC2	-44%[inhibitor]	4	2%	0.1%	5.1	-0.6
COc1cc(-n2nnnc2SCC(=O)N2CCN(c3ccc(F)cc3)CC2)c(OC)cc1Cl	-1%	5	-29%	141%	1.4	0.2
CN(C)S(=O)(=O)N1CCN(C(=O)N(c2ccccc2)c2ccccc2)CC1	3%	-1	-2%	-1.2%	1.2	-0.1
CC(C)(C)c1ccc(C(=O)Nc2ccc(-c3nc4ccccc4o3)c(O)c2)cc1	.	-3	.	-1.7%	.	1.0
CC(=O)C1=C(C)NC(SCc2cccc3ccccc23)=C(C#N)C1c1ccco1 (stereo not drawn)	7%	2	-3%	1.5%	4.9	1.1
COc1ccc(C(=O)N/C(=C\c2cccs2)C(=O)N2CCN(C)CC2)cc1OC	-8%[15.4 µM]	-3	13%	.	.	1.6
COc1ccc(C2/C=C\CN(C(=O)c3ccc(C)cc3)CC(=O)N2Cc2ccc(F)cc2)cc1 (stereo not drawn)	.	-11&36	-2%	-5.5%	0.7&1.1	0.7&0.3
C=CCn1cccc(C(=O)Nc2cc(OC)c(OC)c(OC)c2)c1=O	-13%[15.4 µM]	74	4%	.	-0.8	1.7
CCOc1ccc2oc(C(=O)Nc3ccc(C)cn3)c(C)c2c1	-111%[inhibitor]	-4	.	-12%	.	-1.3
COC(=O)c1ccccc1NC(=O)CCc1ccccc1	-1%[15.4 µM]	9	5%	-1.9%	2.2	0.6

Screens from PubChem BioAssay.
